High-throughput results from PubChem BioAssay.
VDR inhibitor = inhibitors of human vitamin D receptor; 400,000 compounds, 0.93% hits; VDR-SRC2-3 peptide fluorescence polarization, 2 h; P11473; Potency, µM, without a hit: max response, negative = inhibition, hits mostly inhibitors; active = well fitted inhibition curve with a large enough effect; inconclusive = small, poorly fitted or top-dose-only effect, or another doubt; inactive = no such curve, though single readings can be large or run the other way; also: series mostly up to about 120 µM
Target sequence (P11473 whole entry, looked up): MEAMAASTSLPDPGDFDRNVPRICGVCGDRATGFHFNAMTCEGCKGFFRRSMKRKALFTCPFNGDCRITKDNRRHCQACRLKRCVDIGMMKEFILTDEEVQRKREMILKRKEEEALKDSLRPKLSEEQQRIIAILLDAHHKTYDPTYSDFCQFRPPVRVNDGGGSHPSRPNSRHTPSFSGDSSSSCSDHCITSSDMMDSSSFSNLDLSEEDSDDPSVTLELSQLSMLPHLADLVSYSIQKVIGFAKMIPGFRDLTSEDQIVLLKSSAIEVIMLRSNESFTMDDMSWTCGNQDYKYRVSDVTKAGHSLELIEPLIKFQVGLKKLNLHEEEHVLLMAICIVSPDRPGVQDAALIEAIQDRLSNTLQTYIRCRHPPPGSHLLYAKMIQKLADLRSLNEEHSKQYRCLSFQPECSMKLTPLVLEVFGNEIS
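Measured by FP: displacement of SRC2-3 coactivator peptide from VDR by library compounds, following a two-hour ambient incubation.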
The depositor's hits bear a star; ? = inconclusive. % is scaled to controls: 0 for no effect and ±100 for the full control effect; potency is read from the fitted curve at half-maximal effect. A portion of the library. The share of hits here may be higher or lower than overall.

smiles	VDR inhibitor
Cc1onc(-c2c(F)cccc2Cl)c1C(=O)NCc1ccc2c(c1)OCO2	-8%
CCC1(c2ccccc2)NC(=O)N(Cc2ccc(C(=O)OC)cc2)C1=O (configuration not stated)	?
COc1cccc(CNC(=O)C2CCN(c3nnc(-n4c(C)ccc4C)s3)CC2)c1	14%
Cc1ccc(CCNC(=O)c2cc(C)nc3c2c(C)nn3-c2ccc(C)cc2)cc1	1%
CN(CC(=O)Nc1ccc(F)cc1)C(=O)c1cn(-c2ccccc2)nc1-c1cccs1	10%
O=C(CSc1nc(-c2ccccc2)cs1)NCc1ccco1	0%
O=C(NC(CCl)c1ccccc1)c1ccc(Cl)cc1 (configuration not stated)	-7%
O=C(Nc1cccc2c1CCCC2)c1ccncc1	-11%
O=C1CC2(CCN(C(=O)c3ccccc3Cl)CC2)Oc2ccccc21	5%
COc1ccc(Nc2nnc(-c3cc4cc(Cl)ccc4oc3=O)s2)cc1	-16%
C=CCN1C(=O)C2(c3ccccc31)C1CCCC=C1C(C#N)=C(N)C2(C#N)C#N (configuration not stated)	-14%
COc1ccc(Cl)cc1NC(=O)Cn1nnc(C(=O)NCc2cccs2)c1N	-22%
CC(C)(C)NC(=O)NC(=O)COC(=O)Cc1ccc(Cl)cc1Cl	-5%
CC1=C(C(=O)Nc2cccc(C(=O)NC3CCCCC3C)c2)SCCO1 (configuration not stated)	-20%
C[C@H]1NC(=O)[C@]2(C)[C@@H](c3ccccc3)[C@H]3COc4ccccc4[C@H]3N2C1=O	-7%
Cc1ccc(S(=O)(=O)Nc2cc(NC(=O)CN3CCOCC3)ccc2Cl)cc1	4%
Cc1ccccc1CNC(=O)CN1C(=O)c2ccccc2S1(=O)=O	19%
COc1ccc(CCNC(=O)C2CCN(c3nc4ccccc4nc3C(F)(F)F)CC2)c(OC)c1	2%
CCC(=O)Nc1nnc(/C=C/c2ccccc2)s1	1%
CC(Cc1cccs1)NC(=O)Nc1ccc(Cl)c(Cl)c1 (configuration not stated)	-13%

Reformatted: 2 of the compounds above
> O=C(CSc1nc(-c2ccccc2)cs1)NCc1ccco1
- VDR inhibitor: 0%
> O=C(NC(CCl)c1ccccc1)c1ccc(Cl)cc1 (configuration not stated)
- VDR inhibitor: -7%

(cont.)
smiles	VDR inhibitor
Cc1ccc(-c2n[nH]c(S(C)(=O)=O)c2C#N)cc1	-17%
COc1cccc(-n2c(CN3CCN(c4ccccn4)CC3)nc3ccc([N+](=O)[O-])cc3c2=O)c1	-4%
Cc1ccc(C)c(N2CCN(C(=O)c3ccc(CS(=O)Cc4cccc(Cl)c4)o3)CC2)c1 (configuration not stated)	19%
CCOC(=O)c1cccc(NC(=O)CN2C(=O)C3CC=CCC3C2=O)c1 (configuration not stated)	4%
Cc1ccc(CNC(=O)C2CCN(S(=O)(=O)c3ccc(F)cc3)CC2)cc1	-30%
CCN(CC)c1ccc(-c2nnc(SCC(=O)Nc3ccccc3C#N)n2-c2ccccc2)cc1	-2%
Cc1ccc(C)c2c1cc(C)c1nnc(SCc3ccccn3)n12	6%
Cc1cc(NC(=O)NC(=O)c2ccc(F)cc2F)n[nH]1	-9%
COc1ccc(NC(=O)CSc2nnc(-c3cccs3)n2Cc2ccco2)cc1OC	4%
Cc1cn2c(=O)cc(COc3ccc(NC(=O)c4ccccc4C)cc3)nc2s1	-19%
O=C(c1cncs1)N1CCCC(CNS(=O)(=O)c2cccs2)C1 (configuration not stated)	-9%
O=C1COc2ccc(C(=O)COC(=O)c3cc(S(=O)(=O)NCc4ccccc4)ccc3O)cc2N1	-20%
COc1ccc(-n2nc(C(=O)c3cccs3)cc(-c3nc4ccccc4[nH]3)c2=N)cc1	7%
CCCC(=O)Nc1ccccc1NC(C)=O	-12%
CCOC(=O)C1=C(CN2CCCCC2)NC(=O)NC1c1ccc(OC)cc1 (configuration not stated)	10%
O=C(CCC1CCCC1)c1c(O)c2ccccc2oc1=O	-10%
COc1ccc(CN2CCCCC2c2cccnc2)c(OC)c1C (configuration not stated)	4%
O=C1C(c2ccc(F)cc2)N(CCc2ccccc2)C(=O)CN1C1CCCCC1 (configuration not stated)	17%
COc1ccc(-c2nc3ccccc3o2)cc1OC	?
COc1ccc(/C=N/NC(=O)c2ccccc2O)cc1COc1ccccn1	2%

2 compounds drawn at random from those above:
smiles	VDR inhibitor
O=C(CCC1CCCC1)c1c(O)c2ccccc2oc1=O	-10%
O=C(c1cncs1)N1CCCC(CNS(=O)(=O)c2cccs2)C1 (configuration not stated)	-9%

The listing picks up, starting two compounds before the break.
smiles	VDR inhibitor
COc1ccc(-c2nc3ccccc3o2)cc1OC	?
COc1ccc(/C=N/NC(=O)c2ccccc2O)cc1COc1ccccn1	2%
O=C(Nc1ccc2oc(-c3ccccc3F)nc2c1)c1ncn[nH]1	-19%
COc1ccc(-n2c(C)nnc2SCC(=O)N2C(C)CCCC2C)cc1 (configuration not stated)	11%
O=C(COC(=O)c1ccc(OC(F)(F)F)cc1)Nc1ncccn1	0%
COc1ccc(N(CC(=O)Nc2ccc3c(c2)OCCO3)S(=O)(=O)c2cccnc2)cc1	-8%
CCCOC(=O)c1c(NC(=O)c2nc3ncccn3n2)sc(C(N)=O)c1C	-11%
CCN(CC)S(=O)(=O)c1cc([N+](=O)[O-])ccc1NNC(=O)Nc1ccccc1OC	0%
NS(=O)(=O)c1cc(C(=O)OCC(=O)N2CCc3ccccc3C2)ccc1Cl	2%
Cc1ccc(Cn2c(CNS(=O)(=O)c3ccc(Cl)s3)nc3cccnc32)cc1	8%
CC(=O)[C@@]1(O)CC[C@H]2[C@@H]3C[C@H](C)C4=CC(=O)C=C[C@]4(C)[C@@]3(F)[C@@H](O)C[C@@]21C	-17%
COc1ccc(NS(=O)(=O)c2ccc(C)c(C(=O)N3CCC3)c2)cc1	-5%
O=c1cc(CN2CCc3ccccc3C2)nc2sccn12	-5%
COc1cc(C(=O)NNC(=O)Nc2ccc([N+](=O)[O-])cc2)cc(OC)c1OC	-6%
Cn1c2ccccc2c2cc(C(=O)OCC(=O)N3CC(=O)Nc4ccccc43)sc21	-10%
CCOc1ccc(NS(=O)(=O)c2cc(Br)cc3c2N(C(=O)C2CC2)CC3)cc1	-6%
Cc1cc(C)c(C2C(C#N)=C(N)Oc3n[nH]c(C)c32)cc1CN1CCOCC1 (configuration not stated)	-7%
COc1cccc(/C=N/n2c(COc3ccccc3)n[nH]c2=S)c1OC	-1%
CCOC(=O)N1CCN(C(=O)CCn2nc(-c3ccc(Cl)cc3)ccc2=O)CC1	-11%
CCCCCCC/C=N/Nc1nnc(Cc2ccccc2)c(=O)[nH]1	8%
C/C(N)=C(/C#N)C(=O)CSc1nc2ccccc2c(=O)n1Cc1ccc(F)cc1	-11%
Cc1ccc(Nc2cc(C)nc3nc(C)nn23)c(C)c1	-11%

Additional results:
smiles	VDR inhibitor
COc1ccc(S(=O)(=O)/C(C#N)=C/Nc2ccc(NC(C)=O)cc2)cc1	3%
COc1nccc(Nc2ccccc2)c1C#N	6%
CCc1ccc(-c2cc(C(F)(F)F)n3nc(C(=O)Nc4cnn(Cc5ccc(C)cc5)c4)cc3n2)s1	1%
Cc1ccccc1NC(=O)c1oc(=O)c2ccccc2c1-c1ccccc1	-13%
O=C1C(=O)N(CCCn2ccnc2)C(c2ccc(Cl)cc2)/C1=C(\O)c1ccc2c(c1)OCCO2 (configuration not stated)	-8%
COc1ccc(N2CCN(C(=O)CSc3nnnn3-c3ccc4c(c3)OCCO4)CC2)cc1	18%
Cc1cc(OCc2cc(C(=O)N(C)C3CCOCC3)no2)cc(C)c1Cl	-27%
Cc1ccc(S(=O)(=O)N(CC(=O)N2CCOCC2)c2ccc(Br)cc2)cc1	9%
O=C(NN1CCOCC1)c1ccccc1Br	1%
O=C(CN1C(=O)NC2(CCCC2)C1=O)NCCN1C(=O)S/C(=C\c2ccccc2F)C1=O	2%
CC1(C)CC(=O)C(CC(=O)NC(=O)NCc2ccccc2)=C(O)C1	-1%
O=C(NCc1cccs1)C1CCCN1C(=O)Nc1ccccc1Cl (configuration not stated)	-3%
COc1ccccc1NC(=O)c1ccccc1-c1nc(-c2ccccc2OC)no1	-6%
CCN(CC(=O)NCCc1ccc(F)cc1)Cc1nc2ccccc2c(=O)[nH]1	-16%
NCCCC(=O)N1c2ccccc2Sc2ccccc21	11%
COc1ccc(N2CCN(C(=O)Cn3cnc4nc5c(cc4c3=O)CCCC5)CC2)cc1	7%
COc1ccc2[nH]c(C(=O)N(C)Cc3ccccc3)c(C)c2c1	-2%
O=C(O)/C=C/C(=O)NCc1csc2ccccc12	-11%
COc1cccc(-c2nn(C)c3sc(C(=O)NCCc4cccc(C)c4)cc23)c1	-9%
Cc1sc(NC(=O)c2cc3ccccc3oc2=O)c(C(=O)OC(C)C)c1-c1ccccc1	0%

Reformatted with the structure last: four of the compounds above.
VDR inhibitor,canonical_smiles
-30%,Cc1ccc(CNC(=O)C2CCN(S(=O)(=O)c3ccc(F)cc3)CC2)cc1
-2%,CCN(CC)c1ccc(-c2nnc(SCC(=O)Nc3ccccc3C#N)n2-c2ccccc2)cc1
6%,Cc1ccc(C)c2c1cc(C)c1nnc(SCc3ccccn3)n12
-9%,Cc1cc(NC(=O)NC(=O)c2ccc(F)cc2F)n[nH]1

(continued)
| SMILES | VDR inhibitor |
| --- | --- |
| CCOc1ccc(NC(=O)CSc2nnc(C3CC3)n2C)cc1 | 11% |
| CC(C)c1c(C(=O)N/N=C2\CCc3ccccc32)nnn1-c1nonc1N | -10% |
| CCOc1ccc(C2=Nn3c(CC)nnc3SC2)cc1 | 8% |
| COc1ccccc1CNc1cc(-c2ccccc2C)ncn1 | -15% |
| O=C(COC(=O)c1ccccc1)NCc1cccs1 | -11% |
| NNc1ccc2c(C(F)(F)F)cc(C(F)(F)F)nc2n1 | -9% |
| COCCCNC(=O)/C=C/c1cccc(Cl)c1 | -8% |
| COc1ccccc1NC(=O)N1CCCC1C(=O)NCc1cccs1 (configuration not stated) | -9% |
| C(=C\c1sc(Nc2ccccc2)n[n+]1-c1ccccc1)/c1ccccc1 | ? |
| O=C(Nc1cc(Cl)c(O)c(Cl)c1)C1CCCO1 (configuration not stated) | 13% |
| COCCCNC(=O)c1ccc(Cn2c(=O)c3ccccc3n(CC(=O)NCCc3ccc(OC)c(OC)c3)c2=O)cc1 | 6% |
| COc1ccc(CNC(=O)c2ccc(Cl)c(NC3=NC4CS(=O)(=O)CC4S3)c2)cc1 (configuration not stated) | -3% |
| Nc1c(-c2cccs2)cnn1-c1nc(-c2ccc(F)cc2)cs1 | 14% |
| CC(=O)c1ccc(NC(=O)COC(=O)CCC(=O)c2cccs2)cc1 | -11% |
| COc1ccc(NC(=O)CSc2nnc(N)s2)cc1S(=O)(=O)N1CCCCC1 | -4% |
| Cc1nc(C)c(C(=O)N/N=C/c2c[nH]c3ccccc23)s1 | -12% |
| Cc1ccc(S(=O)(=O)N2CCN(C(=O)COC(=O)/C=C/c3cccc([N+](=O)[O-])c3)CC2)c(C)c1 | -15% |
| Cc1ccc(NC(=O)CSc2ccc(Br)cc2)cc1S(=O)(=O)N1CCOCC1 | -27% |
| Fc1ccccc1NC(=S)Nc1cccnc1 | 4% |
| O=C(COC(=O)/C=C/c1ccccc1)NC1CCCCC1 | -8% |
| COc1ccccc1NC(=O)CSc1ccc(-c2ccco2)nn1 | -14% |
| CCS(=O)(=O)Nc1ccc(C(=O)CC2(O)C(=O)Nc3ccccc32)cc1 (configuration not stated) | 2% |
| COc1ccc(C(=O)N2CCN(c3ccc(F)cc3)CC2)cc1S(=O)(=O)NC1CC1 | -5% |
| CC1CCN(C(=O)Cn2cc(C(=O)C3CC3)c3ccccc32)CC1 | 10% |
| CCOC(=O)c1cc(-c2ccc(OC)cc2)n(CCC(=O)Nc2cccc(C)c2C)c1C | 5% |

The list continues:
| SMILES | VDR inhibitor |
| --- | --- |
| O=C(CCC1CCCCC1)NNC(=O)c1cnccn1 | 9% |
| Cc1cccc(-n2c(C)nc3c(cnn3-c3ccc(F)cc3)c2=O)c1 | 2% |
| COc1ccc(CN(CCO)CCO)cc1[N+](=O)[O-] | -1% |
| COc1ccc(Cl)cc1NC(=O)c1cccnc1 | 13% |
| COc1ccccc1NC(=O)C1=C(C)NC2=C(C(=O)CC(c3ccc(OC)c(OC)c3)C2)C1c1coc2ccccc2c1=O (configuration not stated) | -7% |
| C[C@@H]1CC[C@]2(C(=O)O[C@@H]3O[C@H](CO)[C@@H](O)[C@H](O)[C@H]3O)CC[C@]3(C)C(=CCC4[C@@]5(C)C[C@@H](O)[C@H](O)[C@@](C)(C(=O)O[C@@H]6[C@H](O)C[C@@]7(C)C(CC[C@]8(C)C7CC=C7[C@H]9[C@](C(=O)O[C@@H]%10O[C@H](CO)[C@@H](O)[C@H](O)[C@H]%10O)(CC[C@@H](C)[C@@]9(C)O)CC[C@]78C)[C@@]6(CO)C(=O)O)C5CC[C@]43C)[C@@H]2[C@]1(C)O (some centres not stated) | 20% |
| COC(=O)c1cc(C)nc2c1c(=O)nc(SCc1ccccc1C)n2C1CC1 | 8% |
| CCNc1ncc2nc(-c3ccc(OC)cc3)c(=O)n(Cc3cccc(OC)c3)c2n1 | -7% |
| COc1ccc(NC(=O)CC2C(=O)N(c3ccccc3)C(=O)N2CCC2=CCCCC2)cc1 (configuration not stated) | -5% |
| O=C(N/N=C/c1ccc(OC(=O)c2ccc(Br)cc2)cc1)c1ccncc1 | 17% |
| COc1ccc(-c2c(-c3ccccc3OC)sc3ccccc23)cc1 | 5% |
| Nc1nc(CSc2nnnn2-c2ccccc2)nc(N2CCCc3ccccc32)n1 | 6% |
| COc1ccc(CN(Cc2ccco2)c2cnc(S(C)(=O)=O)nc2C(=O)Nc2ccc(C)c(C)c2)cc1 | 1% |
| Cc1c(Cl)cccc1NC(=S)N1CCN(c2ccc([N+](=O)[O-])cn2)CC1 | -18% |
| Cc1ccc(S(=O)(=O)N2CCOC2C(Cl)(Cl)Cl)cc1 (configuration not stated) | -1% |
| CCc1noc(C)c1C(=O)Nc1nc(-c2ccccc2)cs1 | -24% |
| O=C1CSC(=Nc2ccccc2Cl)N1 | 9% |
